Source: PubChem BioAssay (ICCB-Longwood Screening Facility, Harvard Medical School)
KSHV LANA nucl = LANA-nucleosome interaction inhibition; hit rate 0.3% among 51,000; z-score (test concentration not listed); FITC-LANA1-23 / chicken nucleosome fluorescence polarization; hits give low values;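 active = both repeat wells score below -2 in polarization z-score versus plate sample wells, excluding overly bright wells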;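 note: 100 nL library stock added to about 30 µL; numbers are from one replicate; some results filed as inactive read as strong as hits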
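Material: Purified chicken nucleosomes with FITC-labelled LANA N-terminal peptide (1-23) | Reagent: 50 nM FITC-LANA1-23 probe | Medium: TEN-BT buffer, pH 7.5 | Times: 10–45 min incubation at room temperature | Detection: Fluorescence polarization | Replication: Duplicates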
BasE inh = inhibitors of Acinetobacter baumannii siderophore enzyme BasE. purified BasE, fluorescence polarization binding displacement. inhibition, % (concentration not given with the values). hit rate 0.1% among 84,000. AID 485350;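 active = both replicates above 25% with normal brightness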;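 note: 0% = negative plate control signal and 100% = positive plate control signal; stock transfer was 100 nL into about 30 µL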
An asterisk follows results filed as active; · = not tested or not shown.

cpd	canonical_smiles	KSHV LANA nucl	BasE inh
1	O=C(NCCN1CCOCC1)Nc1ccccc1-c1ccccc1	0.56	-2.1
2	COc1cccc(C(O)c2nc3ccccc3n2C(C)C)c1OC (stereo not given)	-0.12	-0.7
3	COC(=O)C(C)Sc1ncnc2c1cnn2-c1ccccc1 (stereo not given)	-0.14	1.1
4	CCCCCCCCCCCCCCCC(=O)C1=C(O)C(CO)OC1=O (stereo not given)	0.011	0.4
5	Brc1cc(Br)c2c(c1)C=C1CCCCCC1(N1CCOCC1)O2 (stereo not given)	·	2.1
6	COc1ccccc1NC(=O)c1c(C)nc(SCC(=O)OC(C)C)c(C#N)c1-c1ccco1	·	0.0
7	S=c1nc(CCCCc2nc(=S)[nH][nH]2)[nH][nH]1	·	3.2
8	CC(=O)N1CCN(S(=O)(=O)c2cccc(C(=O)OCC(=O)N3N=C(c4ccc(C)cc4)CC3c3ccco3)c2)CC1 (stereo not given)	·	0.1
9	CCCOC(=O)c1ccc2c(c1)C(=O)N(c1ccccc1)C2=O	0.24	-2.3
10	Cc1ccc(-c2nnn(CCOc3ccccc3Cl)n2)cc1	·	1.4

The listing continues:
cpd	canonical_smiles	KSHV LANA nucl	BasE inh
11	CN=c1scc(-c2c(-c3ccccc3)n(C)c3ccccc23)n1C	·	-4.6
12	CN1CCN(NC(=O)c2ccc(Cl)cc2)CC1	0.43	1.6
13	O=C(CSc1nnc(CNC(=O)c2ccccc2F)o1)Nc1ccc2c(c1)OCCO2	-0.26	0.7
14	N/C(Cc1nc(-c2ccc(Cl)cc2)cs1)=N\O	·	-0.8
15	COc1cccc(CN(C)C(=O)c2ccc3c(c2)NC(=O)CS3)c1	·	-1.6
16	COc1ccccc1CNC(=O)c1cccc(F)c1	·	-0.8
17	O=C1COc2ccc(C(=O)COC(=O)c3cccc(S(=O)(=O)N4CCCCC4)c3)cc2N1	·	2.2
18	COC(=O)/C(=C/N(C)C)NC(=O)c1ccccc1	1.6	-0.1
19	COc1ccc(CNC(=O)c2c[nH]c3ccccc23)cc1	-0.12	·
20	CCOC(=O)N1CCC(Nc2nc3ccccc3c3nnc(C)n23)CC1	0.085	-1.7

Next records follow.
cpd	canonical_smiles	KSHV LANA nucl	BasE inh
21	Cc1noc2ncn(CC(=O)N3CCC(C)CC3)c(=O)c12	·	0.5
22	CC(C)NC(=O)c1ccc(CS(=O)c2ccc(Cl)cc2)o1 (stereo not given)	2	-2.4
23	CC(=O)Nc1ccc(NC(=O)c2cccc(N(C)C)c2)cc1	·	1.7
24	Cn1c(N)c(C(=O)CSc2nnc(C3CC3)n2-c2ccccc2)c(=O)[nH]c1=O	·	3.7
25	O=C(NCCC(=O)N1CCN(C(=O)c2cccs2)CC1)Nc1ccccc1	·	0.8
26	O=C(O)CCc1ccco1	-0.53	0.8
27	CC1=C(C(=O)N(C)C)C(c2ccccc2C(F)(F)F)NC(=O)N1 (stereo not given)	·	0.5
28	CN=C1S/C(=C\c2ccc(N3Cc4ccccc4C3)cc2)C(=O)N1C	·	3.8
29	COc1ccc(CC(=O)N2CCCc3ccccc32)cc1	0.093	2.9
30	O=C(c1ccc(Cn2c(=S)[nH]c3ccc(N4CCOCC4)cc3c2=O)cc1)N1CCC(N2CCCCC2)CC1	1.7	-5.3

Additional structures follow:
cpd	canonical_smiles	KSHV LANA nucl	BasE inh
31	O=c1[nH]c(CSc2ncccn2)nc2ccccc12	0.64	-1.1
32	O=C(N1CCCc2ccccc21)C(F)(F)F	·	-1.6
33	CC1CCCCN1S(=O)(=O)c1cn(C)c(=O)n(C)c1=O (stereo not given)	-0.079	0.0
34	CCOC(=O)N1CCC(=Nn2c(CC)n[nH]c2=S)CC1	·	2.2
35	O=S(=O)(c1ccc(NC(=S)Nc2ccc3c(c2)OCO3)cc1)N1CCOCC1	-0.4	3.4
36	Cc1ccc(NC(=O)C2=C(N)C(C(=O)Nc3c(F)c(F)c(F)c(F)c3F)SC2=NCc2ccco2)c(C)c1 (stereo not given)	·	2.0
37	CN1CCCC(CC2c3ccccc3Sc3ccccc32)C1 (stereo not given)	-0.6	1.7
38	Cc1nnc(SCc2nnc(-c3ccccc3)o2)o1	-1.5	1.0
39	CC(C)(C)OC(=O)N1CCC[C@H]1C(=O)N1CCN(c2ccccc2)CC1	·	0.3
40	CC(C)c1ccc(NNC(=O)C2CCC2)cc1	-0.15	-1.5

3 entries out of the list, sorted by SMILES length, smallest number first.
cpd	canonical_smiles	KSHV LANA nucl	BasE inh
9	CCCOC(=O)c1ccc2c(c1)C(=O)N(c1ccccc1)C2=O	0.24	-2.3
15	COc1cccc(CN(C)C(=O)c2ccc3c(c2)NC(=O)CS3)c1	·	-1.6
24	Cn1c(N)c(C(=O)CSc2nnc(C3CC3)n2-c2ccccc2)c(=O)[nH]c1=O	·	3.7

Entries of single compounds as entered above.
`Cc1nnc(SCc2nnc(-c3ccccc3)o2)o1` across the screens: KSHV LANA nucl: -1.5; BasE inh: 1.0
`CC(C)c1ccc(NNC(=O)C2CCC2)cc1` across the screens: KSHV LANA nucl: -0.15; BasE inh: -1.5

Remaining list, next part:
cpd	canonical_smiles	KSHV LANA nucl	BasE inh
41	Cc1ccc(Sc2ncccc2NC(=O)c2cccc3ccccc23)cc1	·	-0.8
42	CC1=C(C(=O)Nc2ccccc2)C(c2ccccc2)NC(=O)N1 (stereo not given)	·	2.4
43	O=C(C1CCCCC1)N1CCN(c2ncnc3c2cnn3-c2ccccc2)CC1	-0.87	0.2
44	CC(C)Cn1c(NC(=O)NC(C)(C)C)c2ccccc2nc1=O	-1.1	-0.8
45	Cc1cccc(Nc2ccc(NCc3ccccc3)nn2)c1	-1.5	0.1
46	c1ccc(CNC2CC2)nc1	-0.13	-1.1
47	CCOC(=O)c1ccc(NC(=O)CN2CCN(C(=O)c3ccco3)CC2)cc1	-0.94	0.6
48	CN(CC(=O)Nc1ccc2c(c1)OCCO2)S(=O)(=O)/C=C/c1ccccc1	·	2.5
49	CCN1CCN(C(=O)c2ccc(Cn3c(=O)[nH]c4cc(OC)c(OC)cc4c3=O)cc2)CC1	-0.096	-0.6
50	CCC(=O)OCC(=O)Nc1ccc2c(c1)c1ccccc1n2CC	·	-6.2

(cont.)
cpd	canonical_smiles	KSHV LANA nucl	BasE inh
51	COc1ccccc1N1CCN(CCCNS(=O)(=O)c2ccc3c(c2)C(C)(C)C(=O)N3C)CC1	·	-0.4
52	COc1cccc(/C=N/NC(=O)CSc2nnnn2-c2ccccc2)c1	0.19	1.7
53	Cc1c(C(=O)N2CCCC2)c(S(=O)(=O)N2CCc3ccccc32)c(C)n1C	-0.71	3.9
54	CCn1cc(C(=O)N2CCN(Cc3ccc4c(c3)OCO4)CC2)c2cc(OC)c(OC)cc2c1=O	-0.27	1.8
55	C[N+](C)(C)CC(O)CC(=O)O (stereo not given)	-0.74	-3.4
56	O=C(O)c1cccnc1Sc1cccc(C(F)(F)F)c1	·	0.8
57	CCOC(=O)c1c(C)[nH]c(C)c1S(=O)(=O)NCCCc1ccco1	·	-1.4
58	CCCc1cc(=O)[nH]c(SCC(=O)N(CC(C)C)C2CCS(=O)(=O)C2)n1 (stereo not given)	·	-0.5
59	Cc1cccc(N=Nc2c(C)[nH]n(C(N)=S)c2=O)c1	0.27	3.3
60	CCN(CC)S(=O)(=O)c1ccc2c(c1)nc(-c1ccccc1)n2C	·	-2.0

Continuation:
cpd	canonical_smiles	KSHV LANA nucl	BasE inh
61	CCc1cc(-c2nc(N)ncc2-c2ccc(OC)cc2)c(O)cc1OC	-0.41	1.0
62	CCSc1nc2ccccc2n1C(CC(=O)O)C(=O)O (stereo not given)	-1.2	1.2
63	Cn1nc2n(c1=O)-c1ccccc1SC2	-0.21	2.5
64	COc1cc(NC(=O)c2ccco2)c(OC)cc1NC(=O)CCC(=O)NC1CCN(Cc2ccccc2)CC1	-0.19	1.7
65	Cc1ccc(S(=O)(=O)/N=C(\N)Nc2nc(C)c3ccccc3n2)cc1	-0.61	-1.4
66	CCCn1nc(C(=O)Nc2nc3ccccc3[nH]2)c2ccccc2c1=O	·	7.9
67	CN1CCN(NC(=O)COc2ccc(C#N)cc2)CC1	·	0.5
68	Cc1ccc2nc3c(cc(C(=O)NCCN4CCOCC4)c(=N)n3CC3CCCO3)c(=O)n2c1 (stereo not given)	·	-0.1
69	CC(C)c1ccc(-c2noc(COC(=O)c3c[nH]c4ccccc34)n2)cc1	·	1.4
70	O=C(Cn1cc(I)c(=O)[nH]c1=O)N1CCOCC1	-0.92	2.3

(continued)
cpd	canonical_smiles	KSHV LANA nucl	BasE inh
71	Cc1ccc(Oc2ncccc2C(=O)NCC(=O)O)cc1	·	2.8
72	CC(C)(C)NC1CCCCC1NS(=O)(=O)c1ccc(Cl)cc1 (stereo not given)	-1.3	1.9
73	Cc1cc(C)c2oc(-c3cccc(NC(=O)c4ccc(Br)o4)c3C)nc2c1	0.42	-1.5
74	O=C(NCc1cccs1)C(Cc1ccccc1)NS(=O)(=O)c1cccc2nsnc12 (stereo not given)	-0.69	-0.3
75	O=C(C[n+]1ccccc1)Nc1ccccc1	-0.62	0.1
76	COc1ccccc1NC(=O)/C=c1\[nH]c(=O)/c(=C\c2ccc(C#N)cc2)s1	·	-15
77	O=C(CCc1nc2ccccc2o1)Nc1cccc(-n2cnnn2)c1	·	-2.8
78	CCn1cc(C(=O)O)c(=O)c2cc(F)c(N3CCN(C(C)=O)CC3)cc21	·	1.6
79	COc1ccc(-c2sc(C(=O)O)cc2C)cc1	2.9	2.5
80	COCCNC(=O)c1nc2c(nnn2Cc2cc(C)ccc2C)c(=O)[nH]1	0.54	-1.5

Continuation.
cpd	canonical_smiles	KSHV LANA nucl	BasE inh
81	COCc1cc(=O)[nH]c(-c2ccc(C(F)(F)F)cn2)n1	-0.4	-0.2
82	CCOC(=O)C1CCCN(Cn2ncn(C)c2=S)C1 (stereo not given)	·	2.8
83	C#CCNC(=O)Nc1ccccc1OC	·	-1.1
84	Cn1nnc2cc(NC(=O)NCc3ccco3)ccc21	0.42	0.2
85	Nc1cccc[n+]1CC(=O)[O-]	·	-0.7
86	O=C(NN1C(=O)CSC1=S)c1ccc(F)cc1	·	0.9
87	Cc1c(O)ccc(C(=O)CN2CCN(c3ccc(F)cc3)CC2)c1O	0.81	0.1
88	c1csc(-c2csc3ncnc(NC4CCCC4)c23)c1	0.29	3.9
89	CC(/C=C/c1ccco1)=N/NC(=O)Cc1cccs1	0.66	0.1
90	COCP(=O)(c1ccccc1)c1ccccc1	0.39	2.4

Further results:
cpd	canonical_smiles	KSHV LANA nucl	BasE inh
91	Cc1cc(Cl)ccc1OCC(=O)NC1(C#N)CCCCC1	·	0.5
92	CC1=C(C(=O)Nc2ccccc2C(=O)N2CCCCC2)SCCO1	0.051	1.0
93	O=C(Nc1ccccc1N1CCCC1)C1COc2ccccc2O1 (stereo not given)	·	0.1
94	COc1ccc(CCNC(=O)c2oc3ccc4c(c3c2C)C(O)CC(C)(C)O4)cc1OC (stereo not given)	-0.87	-0.2
95	COc1ccc(N2CCN(Cn3cnc4ccccc43)CC2)cc1	·	-0.4
96	COC(=O)c1cn[nH]c1NC(=S)Nc1ccccc1C	1.6	-1.7
97	CC(C)(C)n1nc2c(c1NC(=O)c1ccc(Cl)cc1)CSC2	·	2.1
98	COc1ccc(NC(=O)Cn2c(=O)n(CCc3ccccc3)c(=O)c3cccnc32)cc1	-0.79	-0.9
99	O=C(O)CCc1cc(=O)[nH]o1	-0.74	3.7
100	Cc1ccc(S(=O)(=O)N2Cc3ccccc3CC2C(=O)Nc2cccc3ccccc23)cc1 (stereo not given)	·	2.8

Additional results follow.
cpd	canonical_smiles	KSHV LANA nucl	BasE inh
101	CCC1=[N+]([O-])C(C)(/C(C)=N\O)N(O)C1(C)C (stereo not given)	·	2.1
102	c1ccc(CCN2CCc3nc(N4CCN(c5ccccc5)CC4)ncc3C2)cc1	0.6	-0.8
103	CCc1ccccc1NNC(=O)c1cc(C)on1	0.04	-2.1
104	N=C1C(c2ccccc2)=C(O)CN1c1ccc(S(=O)(=O)N2CCOCC2)cc1	·	3.6
105	CC1(C)OC(=O)C(=C2C3CC4CC(C3)CC2C4)C(=O)O1	-0.41	0.7
106	S=C(NC1CC1)NC1CCCc2ccccc21 (stereo not given)	·	2.2
107	CCCCCn1c(CCC(=O)Oc2ccccc2OC)nc2c1c(=O)[nH]c(=O)n2CCCC	·	2.5
108	c1ccc(-c2nnc(NC3=NCCC3)o2)cc1	·	1.7
109	Nc1ccc(Sc2ccc3ccccc3c2Cl)c(Cl)c1	·	1.5
110	O=C(O)c1cnc(-c2ccccc2)nc1-c1ccncc1	-0.5	2.1

Look-ups from the list:
#103 in BasE inh is entered as -2.1
#102 in BasE inh is entered as -0.8
#104 in BasE inh is entered as 3.6

Following part:
cpd	canonical_smiles	KSHV LANA nucl	BasE inh
111	COc1cc(N)c(Cl)cc1C(=O)OCC(=O)NC1(C#N)CCCCC1	·	-1.2
112	O=C(Cc1ccccc1)c1c[nH]c(C(=O)NCCc2ccccn2)c1	3	·
113	O=C(/C=C/c1nc2ccccc2s1)N1CCN(C(=O)C2CCCO2)CC1 (stereo not given)	·	0.3
114	CCOc1ccc(NC(=O)COc2nsnc2N2CCOCC2)cc1	0.61	0.5
115	N#C/C(=C\c1cccs1)C(N)=O	0.91	-11
116	O=C1CC(C(=O)c2ccccc2)N=C(N2CCOCC2)N1 (stereo not given)	-1.1	2.3
117	N=c1c(S(=O)(=O)c2ccccc2)cc2c(=O)n3ccccc3nc2n1C1CCCC1	·	0.3
118	CCc1ccc2c(c1)=C(c1sc(N)nc1O)C(=O)N=2	·	0.6
119	Cc1cccc(OCC(=O)N(Cc2ccccc2)c2ccccn2)c1C	0.74	-2.9
120	CNC(=O)COC(=O)c1ccc(Br)o1	·	-2.4
121	CCOC(=O)N1CCC(NS(=O)(=O)c2csc(C(N)=O)c2)CC1	·	1.4

Some of the compounds tested (hit frequency here may not be typical).
